# Bioassay records deposited in PubChem BioAssay by National Center for Advancing Translational Sciences (NCATS).
# RE007 growth inh: less growth of the S. pombe RE007 Vpr strain; hit rate 0.21% among 360,000; AID 651644; S. pombe RE007 Vpr strain, BacTiter-Glo ATP luminescence, 24 h; control for the full effect not named in the record; Potency, µM (titrated, usually from 92.2 µM), for inactives: at the highest dose activity change, negative = less growth; active = well fitted falling curve with a large enough effect; inconclusive = small, poorly fitted or top-dose-only effect; inactive = no such curve, though single readings can be large or run the other way;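 further: on the % scale 0 is the no-effect control and ±100 the full control effect; nearly all actives have a fitted effect of over 50% in size; the assay follows cell death caused by Vpr and the record does not say whether a fall means rescue or toxicity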
#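 Fission yeast RE007 carrying one integrated HIV-1 vpr copy, seeded at OD 0.01 in PMG+AL medium with 23 nL pinned compound. Grown 24 h at 30 degrees; viability read by BacTiter-Glo luminescence after 5 min.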
# Cruzain inh Det: cruzain (T. cruzi) inhibition with detergent; P25779; purified cruzain, Z-FR-AMC fluorescence, 0.01% Triton; Potency, µM, for inactives: max response, negative = inhibition, actives largely listed as inhibitors; hit rate 0.43% among 200,000;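 further: plate controls were neutral wells for no effect and buffer without enzyme for full effect; nearly all actives have a fitted effect of over 40% in size; top concentration of the series not given in the record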
# Target sequence (P25779 123-467 limits assumed): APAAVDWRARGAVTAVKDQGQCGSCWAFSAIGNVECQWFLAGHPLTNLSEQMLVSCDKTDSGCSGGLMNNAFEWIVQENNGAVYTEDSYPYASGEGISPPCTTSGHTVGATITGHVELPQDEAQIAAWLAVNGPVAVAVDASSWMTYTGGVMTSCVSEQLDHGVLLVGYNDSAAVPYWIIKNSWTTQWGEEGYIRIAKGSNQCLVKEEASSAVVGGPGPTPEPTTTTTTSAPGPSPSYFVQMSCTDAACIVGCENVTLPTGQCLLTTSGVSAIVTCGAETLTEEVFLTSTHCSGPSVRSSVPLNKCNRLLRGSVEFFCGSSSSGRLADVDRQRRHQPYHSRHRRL
#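 Steps: dispense cruzain (1.5 nM final) in acetate buffer pH 5.5 with DTT and 0.01% Triton X-100; pin-transfer compounds; incubate 15 min RT; add Z-FR-AMC (2 uM final); read fluorescence every 30 s, using the 60 s intensity change.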
# Cruzain inh noDet: inhibitors of Trypanosoma cruzi cruzain without detergent | P25779 | purified cruzain, Z-FR-AMC fluorescence, no detergent | Potency, µM, for the others: max response, negative = inhibition, hits mostly inhibitors | hit rate 2.3% among 200,000 | AID 1476;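 further: plate controls were enzyme without inhibitor for no effect and buffer without enzyme for full effect; nearly all actives have a fitted effect of over 40% in size; top concentration of the series not given in the record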
#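 Purified cruzain at 1.5 nM, pre-incubated 15 min with compound at room temperature in 100 mM sodium acetate pH 5.5, 5 mM DTT, 0.00005% Triton X-100. Reaction started with 2 uM Z-FR-AMC; AMC fluorescence increase over 60 s gives rate.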
# NS1 inh: inhibitors of influenza NS1 protein function | S. cerevisiae slowed by influenza A NS1, growth recovery by OD600 | Potency, µM (series often up to 46.1 µM), for inactives: at the highest dose activity, positive = more growth | hit rate 0.4% among 270,000 | AID 2326; active means well fitted rising curve with a large enough effect; inconclusive means small, poorly fitted or top-dose-only effect; inactive means no such curve, though single readings can be large or run the other way; further: nearly all actives have a fitted effect of over 50% in size
#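 Growth recovery, yeast-based: influenza A NS1 expressed in S. cerevisiae causes slow growth, and suppressors are detected by OD600. The parent strain without NS1 is used as positive control.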
# SARS PLpro yeast: blocks SARS-CoV papain-like protease in a yeast assay; S. cerevisiae expressing SARS-CoV PLpro, growth rescue; control for the full effect not named in the record; hit rate 0.19% among 330,000; Potency, µM (doses to about 32.9 µM), for inactives: top-dose activity, positive = growth rescue; AID 485353; active means well fitted rising curve with a large enough effect; inconclusive means small, poorly fitted or top-dose-only effect; inactive means no such curve, though single readings can be large or run the other way; further: 0% is about no effect; nearly all actives have a fitted effect of over 55% in size; growth read by luminescence after 48 h
# LASV entry inh: Lassa virus entry inhibition. hit rate 1.2% among 300,000. Lassa virus pseudotype entry inhibition, cell reporter; control for the full effect not named in the record. Potency, µM (doses to about 37.9 µM), for the others: top-dose activity change, negative = inhibition, hits mostly inhibitors; active means well fitted inhibition curve with a large enough effect; inconclusive means small, poorly fitted or top-dose-only effect, or effect the other way; inactive means flat fitted curve, though single readings scatter; tested in HEK293 cells; further: on the % scale 0 is the no-effect control and ±100 the full control effect; nearly all actives have a fitted effect of over 50% in size; luciferase read-out
# 2A StopGo: FMDV 2A StopGo reporter, luciferase signal; human cells with a luciferase reporter of 2A StopGo recoding; control for the full effect not named in the record; Potency, µM (doses to about 57.9 µM), for the others: at the highest dose signal change, negative = less light; hit rate 1.2% among 410,000; AID 1159524; active = well fitted falling curve with a large enough effect; inconclusive = small, poorly fitted or top-dose-only effect; inactive = no such curve, though single readings can be large or run the other way; tested in HEK293T cells; further: on the % scale 0 is the no-effect control and ±100 the full control effect; nearly all actives have a fitted effect of over 45% in size; luciferase light after 4 h
# MARV entry inh: Marburg virus entry inhibition; AID 540276; hit rate 1.8% among 300,000; Marburg virus pseudotyped entry inhibition, cell reporter; control for the full effect not named in the record; about a third of the inactives were read at about 46 µM; Potency, µM (highest dose often 37.8 µM), inactives show at the highest dose activity change, negative = inhibition, actives largely listed as inhibitors; active = well fitted inhibition curve with a large enough effect; inconclusive = small, poorly fitted or top-dose-only effect, or effect the other way; inactive = flat fitted curve, though single readings scatter; tested in HEK293 cells; about a fifth of its hits are not listed in these tables; further: on the % scale 0 is the no-effect control and ±100 the full control effect; luciferase read-out
# * hit, by the source's call; ? = inconclusive; . = no result given; & = joins results of further samples; [ ] = another dose, or the depositor's remark. Unless noted, the call rests on the fitted dose curve; in most records, active means well fitted curve in the direction sought with a large enough effect; inconclusive means small, poorly fitted or top-dose-only effect, or another doubt; inactive means no such curve, though single readings can be large; an effect the other way counts as inactive or inconclusive. Potency means the concentration at half of the fitted maximal effect.
smiles	RE007 growth inh	Cruzain inh Det	Cruzain inh noDet	NS1 inh	SARS PLpro yeast	LASV entry inh	2A StopGo	MARV entry inh
Cc1ccc(CCC(=O)Nc2ccc(S(N)(=O)=O)cc2)o1	4%	6.9%	-7%	1%	1%	-6%	-5%	0%
Cc1ccc(C)c(NC2=C(c3ccc(C(F)(F)F)cc3)C(=O)c3ccccc32)c1	.	-3.6%	-4%	.	.	12%[46.1 µM]	?	-22%[46.1 µM]
CCOc1ccc(-n2ccnc(SCC(=O)Nc3ccc(CC)cc3)c2=O)cc1	4%	.	.	.	-2%	-2%	-22%	?
CCCNC(=O)COC(=O)c1n[nH]c2ccccc12	10%	.	.	.	4%	-8%	7%	17%[46.1 µM]
Cc1nn(C(=O)N(C)C)c(C)c1CN1C(=O)c2ccccc2C1=O	-2%	.	.	-1%	?	18%[46.1 µM]	-9%	6%[46.1 µM]
COc1ccc(-c2cc(C(F)(F)F)nc(N3CCN(Cc4ccccc4)CC3)n2)cc1OC	-15%	-2.6%	13%	-50%	3%	?	?	?
Cc1cccc(OCc2nnc(SCc3cc(=O)[nH]c4ccccc34)n2-c2ccccc2)c1	-4%	-7.6%	4%	10%	0%	?	-8%	4%
CC(C)NC(=O)CSc1nc(Cc2cccs2)nc2ccccc12	-6%	-8.9%	-17%	-18%	-3%	0%	.	-20%
Cc1ccc([N+](=O)[O-])cc1NC(=O)c1ccc(CSc2ccccc2)cc1	3%	-2.8%	-7%	13%	?	-8%	-11%	22%
CCn1c2ccccc2c2cc(NC(=O)CSc3nnc(C4CC4)n3Cc3ccco3)ccc21	4%	0.2%	?	-7%	-4%	?	-19%	?
COc1cc(C(CC(=O)Nc2ncccc2C)N2Cc3ccccc3C2=O)cc(OC)c1OC (stereo not given)	5%	-0.1%	0%	-1%	-3%	4%[46.1 µM]	28%&40%	.
COc1ccc(C(=O)c2c(N)c(C(=O)Nc3cccc(OC)c3)c3ccccn23)cc1	.	-0.6%	-13%	.	.	7%[46.1 µM]	-12%	-2%[46.1 µM]
Nc1nonc1C(=O)NC(c1ccccc1)c1ccccc1	-11%	0.8%	-11%	0%	-1%	-14%	.	-1%
COc1ccc(-c2nnc3ccc(SCC(=O)N4CCOCC4)nn23)cc1	5%	-2.7%	-3%	?	1%	.	26%	.
COc1cc2cc(CN(CCCO)S(=O)(=O)c3ccccc3)c(=O)[nH]c2cc1OC	1%	-1.4%	20%	-4%	-1%	0%	.	-7%
COc1cc(O)ccc1C=O	-12%	.	.	4%	0%	.	-14%	.
COc1ccccc1/C=C/C(=O)NCC(=O)N/N=C/c1ccccc1[N+](=O)[O-]	0%	.	.	.	1%	9%	-15%	-28%[46.1 µM]
COCCn1c(SCc2cccc(F)c2)nc2cc(C(=O)OC)ccc2c1=O	-11%	.	.	-2%	-1%	.	-6%	.
Cc1nnc2sc(SCC(=O)N3CCCCC3)nn2c1=O	6%	.	.	4%	3%	25%[46.1 µM]	4%	6%[46.1 µM]
NC1=NN=C(N2N=C(c3ccc(Br)cc3)CC2(O)C(F)(F)F)n2ncnc2C1 (stereo not given)	6%	.	.	.	2%	19%	-14%	6%[46.1 µM]
COc1ccc(C(=O)CC2(C(=O)O)CCCCC2)cc1	-2%	.	.	-54%	-3%	.	-5%	.
COc1ccc(NS(=O)(=O)c2ccc(NC(=O)Cc3cccs3)cc2)cc1	-1%	-4.6%	18%	6%	13%	?	-27%	?
O=C(Nc1ccncc1)C1COc2ccccc2O1 (stereo not given)	-19%	-0.1%	-22%	-6%	3%	18%	-4%	-1%
COc1ccc(OC)c(NC(=O)c2ccc(N3C(=O)C4CC=C(C)CC4C3=O)cc2)c1 (stereo not given)	-18%	.	.	-2%	1%	.	-17%	.
CC(C)c1nc(SCC(=O)N2CCCC2)c2ccccc2n1	12%	1.4%	3%	-119%	1%	3%	-24%	23%
CCn1c(=O)cc(OCC(=O)NCCc2ccc(OC)c(OC)c2)c2ccccc21	-19%	.	.	.	2%	8%	-13%	-5%[46.1 µM]
O=C(CN(c1ccccc1)S(=O)(=O)c1ccc(Cl)cc1)Nc1ccccc1C(=O)N1CCCC1	-12%	-3.8%	5%	8%	-5%	-25%	-24%	0%
O=S1(=O)N=C(N2CCN(Cc3ccccc3)CC2)c2ccccc21	10%	1.2%	-10%	-1%	1%	6%	0%	?
CSCCC1NC(=S)N(Cc2ccccc2)C1=O (stereo not given)	20%	.	.	4%	2%	.	0%	.
COc1cc(OC)cc(C(=O)NNC(=S)NCc2ccco2)c1	5%	.	.	5%	0%	5%[46.1 µM]	15%	-17%[46.1 µM]
OC(c1nc2ccc(F)cc2[nH]1)C(O)c1nc2ccc(F)cc2[nH]1 (stereo not given)	18%	.	.	-3%	-1%	?	-18%	?
COc1cccc(CNC(=O)c2nnn(CC(=O)Nc3ccc(Br)cc3)c2N)c1	3%	.	.	-1%	2%	.	?	.
CCOC(=O)CSC1=C(C#N)C(=O)NC(c2ccc(OC)cc2)S1 (stereo not given)	6%	-12%	-5%	6%	12%	-14%	3%	11%
Cc1ccc(C)c(C(=O)NC(C)CCc2ccccc2)c1 (stereo not given)	10%	.	.	-1%	-4%	.	-18%	.
OC[C@H]1NC[C@@H](O)[C@@H]1O	-14%[18.4 µM]	4.1%	5%	-1%	.	?	-16%	1%&-22%&-22%
CC1=CC(=O)C(C(C)=Nc2ccccc2[N+](=O)[O-])C(=O)O1 (stereo not given)	-13%	.	.	.	.	?	-13%	1%
COc1ccc(Nc2nc(N)nc(CN3CCC(Cc4ccccc4)CC3)n2)cc1	-15%	-2.1%	1%	-7%	6%	-23%	?	?
CN(C)S(=O)(=O)c1cccc(NC(=O)COc2cccc(C#N)c2)c1	-9%	-0.5%	-5%	0%	6%	6%	14%	?
COc1cc(NC(=O)Cn2cnc(S(=O)(=O)N3CCC(C)CC3)c2)cc(OC)c1OC	11%	.	.	3%	3%	-3%[46.1 µM]	19%	2%[46.1 µM]
CN1CCN(c2ccc(S(=O)(=O)N3CCCCC3)cc2NC(=O)COc2cccc(Cl)c2)CC1	-8%	.	.	.	4%	?	-23%	?
CC1CCCC(C)N1C(=O)COC(=O)CSc1ccc(C(N)=O)cc1[N+](=O)[O-] (stereo not given)	-2%	.	.	.	3%	-3%	-12%	0%
CCc1nn(C(C)C(=O)NCCN2CCN(c3cccc(C)c3C)CC2)c(=O)c2cc3occc3n12 (stereo not given)	-4%	-1.0%	1%	3%	1%	-13%	28µM*	?
CCOc1ccc2nc(N3CCC(C(=O)Nc4cc(C)ccc4C)CC3)sc2c1	.	-0.9%	-11%	.	.	.	18%	?
O=C(CNC(=O)C1CCCCC1)Nc1ccc(Cl)cc1	-3%	1.5%	-2%	7%	1%	-2%	93%[activator]	11%
COc1ccc(N2CCN(CCCNC(=O)Nc3ccccc3)CC2)cc1	13%	-2.9%&0.7%	-1%&-5%	3%	15%	16%[46.1 µM]	-23%&-12%	1%[46.1 µM]
CC(=O)N1N=C(c2cccc(Cl)c2)OC1c1cccc([N+](=O)[O-])c1 (stereo not given)	7%	-4.2%	10%	-16%	-51%	?	-28%	1%
CCCCSc1nnc(-c2ccc(OC)cc2)n1C	-14%	5.0%	4%	-8%	-17%	?	44%[activator]	4%
Cc1ccc(C2(C)NC(=O)N(CC(=O)Nc3nc(-c4ccccn4)cs3)C2=O)cc1 (stereo not given)	-2%	.	.	.	0%	?	-20%	-29%
Cc1cc(/C=C(\C#N)C(=O)NCc2cccs2)c(C)n1-c1ccccc1F	-6%	-4.0%	-7%	5%	4%	?	0%	-30%
NC(=O)c1ccc(/C=N/O)[n+](Cc2ccccc2)c1	2%	.	.	17%	-3%	.	2%	.

# Next part.
smiles	RE007 growth inh	Cruzain inh Det	Cruzain inh noDet	NS1 inh	SARS PLpro yeast	LASV entry inh	2A StopGo	MARV entry inh
CC(=O)c1ccc(NC(=O)NC2CC(=O)N(c3ccc4c(c3)OCCO4)C2)cc1 (stereo not given)	-4%	.	.	.	-3%	7%	-17%	1%[46.1 µM]
CCOC(=O)N1CCN(c2ncnc3c2cnn3-c2ccc(OC)cc2)CC1	5%	2.2%	?	-6%	4%	-6%	-8%	6%&6%&6%
N#Cc1ccccc1Sc1ccccc1C(=O)OCC(N)=O	13%	.	.	.	1%	-8%	-4%	?
CC1CN(S(=O)(=O)c2cccc(C(=O)NCc3ccc4c(c3)OCO4)c2)CC(C)O1 (stereo not given)	-12%	-1.4%	1%	-5%	7%	-3%	-16%	-12%[46.1 µM]
CCC1CCc2[nH]nc(C(=O)O)c2C1 (stereo not given)	-18%	-0.7%	5%	4%	-11%	3%	.	4%
CC(C)CC(=O)N1CCN(Cc2ccc3ccccc3c2)CC1	6%	.	.	-6%	3%	.	-23%	.
CCOC(=O)NC1(Nc2cccc(Cl)c2)Oc2ccccc2O1	-17%	-5.5%	3%	-4%	2%	?	10%	?
Cc1cccc(C)c1NC(=O)CNC(=O)c1c(C)nn(C)c1Cl	9%	.	.	-2%	-2%	1%[46.1 µM]	-14%	8%[46.1 µM]
O=C(CNC(=O)c1ccncc1)Nc1ccc(F)c(F)c1	-17%	.	.	10%	6%	-7%	-1%	-6%
CCCCN(CC)CCNC(=O)CN1C(=O)COc2ccc(S(=O)(=O)N3CCCC3)cc21	2%	0.7%&6.4%	-14%&1%	0%	1%	17%[46.1 µM]	-12%&-28%	-8%[46.1 µM]
CN(O)/C=C/C(=O)c1ccc(Br)cc1	0%	.	.	.	-4%	-16%	7%	?
O=C(O)/C=C/C(=O)NNC(=O)c1ccc(Cl)cc1Cl	0%	.	.	13%	-1%	14%	-13%	9%[46.1 µM]
CC(=O)CC(C)=NCCN=C(C)CC(C)=O	-1%	-1.1%	0%	10%	0%	-7%	-1%	20%
O=C(NCCCN1CCN(c2ccccc2)CC1)c1nnc(Cc2c(F)cccc2Cl)o1	.	-0.9%	-2%	.	.	0%[46.1 µM]	-23%	?
CCCC(=O)Nc1ccc2oc(-c3ccncc3)nc2c1	-2%	-0.9%	11%	-32%	6%	14%	37%[activator]	23%
